Bioassay records (PubChem BioAssay)
KCNQ2 inh: KCNQ2 potassium channel inhibitors, primary screen, cell-based, CHO-K1, FluxOR thallium flux, B-score (AID 2156) | B-score at 10 µM | 20 min; active compounds read low; only compounds with negative scores are shown here; some inactives read as strong as hits | 310,000 compounds, 1.1% hits;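 active means fluorescence ratio B-score at most minus 3 library SDs, with starting brightness B-score within 2 library SDs, cut at about -5.5 in these data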
Target sequence (O88943 whole entry, looked up): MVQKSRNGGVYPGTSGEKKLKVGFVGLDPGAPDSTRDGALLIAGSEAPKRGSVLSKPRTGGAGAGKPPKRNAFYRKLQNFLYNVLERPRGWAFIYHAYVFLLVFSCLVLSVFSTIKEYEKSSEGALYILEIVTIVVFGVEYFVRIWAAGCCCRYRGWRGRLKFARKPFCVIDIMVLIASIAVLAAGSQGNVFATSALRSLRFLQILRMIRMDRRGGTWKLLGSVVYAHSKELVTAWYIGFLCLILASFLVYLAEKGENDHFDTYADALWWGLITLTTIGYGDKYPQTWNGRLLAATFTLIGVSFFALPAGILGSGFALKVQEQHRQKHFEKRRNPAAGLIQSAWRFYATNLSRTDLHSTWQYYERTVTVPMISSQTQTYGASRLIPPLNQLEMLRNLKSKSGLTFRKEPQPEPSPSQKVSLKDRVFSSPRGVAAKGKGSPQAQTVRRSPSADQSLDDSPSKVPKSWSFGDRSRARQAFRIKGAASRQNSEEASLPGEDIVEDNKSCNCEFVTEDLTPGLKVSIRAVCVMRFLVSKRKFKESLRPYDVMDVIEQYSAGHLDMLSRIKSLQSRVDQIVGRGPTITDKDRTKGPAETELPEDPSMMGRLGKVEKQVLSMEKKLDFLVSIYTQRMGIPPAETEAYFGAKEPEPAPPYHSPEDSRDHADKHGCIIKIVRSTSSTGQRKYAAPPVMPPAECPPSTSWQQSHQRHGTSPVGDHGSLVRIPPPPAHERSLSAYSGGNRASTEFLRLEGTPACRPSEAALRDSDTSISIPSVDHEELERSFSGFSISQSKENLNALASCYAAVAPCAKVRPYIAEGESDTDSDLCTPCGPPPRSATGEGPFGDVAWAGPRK
KCNQ2 inh baseline: further read-out of KCNQ2 inh, marked with its call; B-score; measured here: initial fluorescence intensity artifact check;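 brightness before thallium and not channel activity; 0 = typical well and far values either way flag optical interference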
An asterisk follows results filed as active; i = inactive. These rows are one share of the data; the hit share may differ from the screen's.

SMILES	KCNQ2 inh	KCNQ2 inh baseline
Cc1ccc(S(=O)(=O)c2c(C)nn(C(C)(C)C)c2OC(=O)C(C)C)cc1	i	-1.5
CCOC(=O)c1cc(-c2ccccc2)n(CCC(=O)O)c1C	i	-0.01
C=CCOc1ccc(Cl)cc1CNCCCN1CCOCC1	i	0.35
COc1ccc(C(=O)N2CCN(c3nnnn3-c3ccccc3)CC2)cc1OC	i	-0.02
Cc1ccccc1Cn1cnc2c(NS(C)(=O)=O)c(C)c(C)cc21	i	1.8
CCOCCCNc1nc2c(C)cccn2c(=O)c1/C=C1\SC(=S)N(CC(C)C)C1=O	i	2
COc1ccc(/C=N/NC(=O)c2cccc(NC(C)=O)c2)c(C(=O)O)c1OC	i	0.53
COc1ccc(NC(=O)c2ccc3c(c2)OCO3)cc1[N+](=O)[O-]	i	-0.17
O=C(Nc1ccccc1N1CCCC1)c1cccc(-c2cc3ccccc3oc2=O)c1	i	0.88
O=C(OCCO)c1cc(Cl)c(C(=O)OCCO)cc1Cl	i	1.1
CC(=O)N1CCN(c2ccc(NCc3ccc(C)s3)cc2)CC1	i	0.92
CN(Cc1c(F)cccc1Cl)C(=O)c1ccc(COc2ccccc2)cc1	i	-1.5
O=C(NCCN1C(=O)C2C3C=CC(C3)C2C1=O)Nc1ccccc1O (configuration not stated)	i	1.1
O=C(CCC(=O)N1CCN(S(=O)(=O)c2ccc(Cl)cc2)CC1)NC1CCCc2ccccc21 (configuration not stated)	-7.1*	0.09*
O=Cc1cc(Cl)ccc1OCCN1CCC(Cc2ccccc2)CC1	i	0.26
Cc1ccc(S(=O)(=O)N2CCOCC(=O)NCCOCCNC(=O)COCC2)cc1	i	-1.8
Cc1ccc(OCCNC(=O)C(=O)NCc2ccco2)cc1	i	-0.38
O=C(Oc1ccc(Cl)c2cccnc12)N1CCCCC1	i	-0.62
CCN(C(=O)CN1CCN(c2ccccc2F)CC1)c1c(N)n(Cc2ccccc2)c(=O)[nH]c1=O	i	0.42
Clc1ccc(-c2nnnn2-c2ccc(Cl)c(Cl)c2)cc1Cl	i	0.64
Cc1ccc(N(CCC#N)C(=O)COC(=O)C2CCN(c3ccc(C(F)(F)F)cn3)CC2)cc1	i	-0.81
CCOc1c(C)cc2[nH]c(CCC(=O)O)nc2c1C	i	-0.91
CCOC(=O)C1=C(C)N=c2s/c(=C\c3ccc(OCC(=O)O)c(OC)c3)c(=O)n2C1c1ccc(OC)cc1 (configuration not stated)	i	0.13
CCc1ccc(NC(=S)Nc2ccc3cn[nH]c3c2)cc1	i	1.6
Cc1ccc(NC(=O)/C(Cl)=C/c2ccccc2)cc1C	i	-2.6
Cc1nc2ccccc2c(=O)n1NC(=O)c1ccc([N+](=O)[O-])cc1	i	-0.94
CC1CC(C)CN(S(=O)(=O)c2ccc(Oc3ccc([N+](=O)[O-])cc3)cc2)C1 (configuration not stated)	i	-1.8
CC(=O)c1ccc(N2CCN(C(=S)Nc3cc(C)ccc3C)CC2)cc1	i	0.7
Cc1ccc(N2CCN(S(=O)(=O)N(C)C)CC2)cc1C	i	2
Cc1ccc(-c2nnc(Cc3ccc(Cl)cc3)o2)cc1	i	-1
COc1ccccc1C(=O)NC(CCSC)C(=O)N1CCC(Cc2ccccc2)CC1 (configuration not stated)	-7.2*	0.52*
COc1ccc(C(c2nnnn2C2CCCC2)N2CCC(C)CC2)cc1 (configuration not stated)	i	-2.4
O=C(CNC(=S)N(CCCN1CCOCC1)Cc1cccs1)NC1CCCCCCC1	i	1.7
CC1CCC2(CC1)NC(=O)N(CC(=O)Nc1ccc3c(c1)OCCO3)C2=O (configuration not stated)	i	-0.52
Cc1nc(N)ncc1C(=O)Nc1ccccc1	i	-0.29
COC(=O)CSc1nnc(C2COc3ccccc3O2)n1-c1ccccc1 (configuration not stated)	i	0.16
COc1ccc(C(C(=O)NCC2CCCO2)N(C(=O)Cn2nnc3ccccc32)c2ccc(NC(C)=O)cc2)c(OC)c1 (configuration not stated)	i	-0.22
Cc1cccc(N(CC(O)CON=C2c3ccccc3-c3ccccc32)S(C)(=O)=O)c1 (configuration not stated)	i	-0.18
CCOC(=O)c1c(C)nc2c(C#N)cnn2c1C	i	-0.14
COc1cc2c(cc1OC)C(c1ccccc1Br)NC(=O)C2 (configuration not stated)	i	-0.25
O=C(C[n+]1cn(C(F)F)c2ccccc21)c1ccc(OC(F)F)cc1	i	0.64
O=C(Cc1ccccc1[N+](=O)[O-])Nc1ccccc1C(=O)N1CCOCC1	i	-0.82
Cc1ccc(CNC(=O)C(=O)NCC2OCCN2S(=O)(=O)c2ccc(Br)cc2)cc1 (configuration not stated)	i	-2.4
CCC(C)[C@H](NC(=O)NCc1ccc(OC)c(OC)c1)C(=O)O (some centres not stated)	i	1.3
CC(=O)c1ccc(Nc2cnn(C34CC5CC(CC(CC(=O)O)(C5)C3)C4)c(=O)c2Cl)cc1	i	0.51
CCOc1ccccc1C(=O)Nc1ccccc1O	i	0.04
CCCc1ncc(CN2CCCC(C(=O)Nc3ccc(-c4cccc(OC)c4)cc3)C2)cn1 (configuration not stated)	i	-0.28
CC(=O)c1cccc(NC(=O)C(Sc2ncnc3ccccc23)c2ccccc2)c1 (configuration not stated)	i	-0.39
COc1cc(-c2nc(CN(C)C(C)c3ccncn3)c(C)o2)ccc1F (configuration not stated)	i	0.41
CC/C(=N\NC(C)=O)c1ccc(OC(F)F)cc1	i	0.02
CC1=C(C(N)=O)C(c2ccc(Cl)cc2)n2nc(CCCO)nc2N1 (configuration not stated)	i	1
Cc1cccc(-c2nc(C#N)c(N3CCCCCC3)o2)c1	i	0.41
O=C1CCC(c2ccccc2)=NN1	i	0.1
O=C1CCC(c2ccc(-n3ccnc3)cc2)=NN1	i	0.71
CC(Cc1ccccc1)NC(=O)C1(c2ccccc2)CCOCC1 (configuration not stated)	i	0.23
CC(CC(=O)N1CCN(c2ccccc2)CC1)S(=O)(=O)c1ccc2c(c1)NC(=O)CS2 (configuration not stated)	i	1.3
COc1ccc(/C=C2\S/C(=N/S(=O)(=O)c3cccs3)NC2=O)cc1	i	-0.87
COc1ccc(N2CC(NC(=O)NC(C)(C)C)CC2=O)cc1 (configuration not stated)	i	0.15
CN(C)/C(=N\S(=O)(=O)c1ccccc1)c1ccccc1	i	-0.01
O=C(/C=C/c1ccc(-c2ccccc2[N+](=O)[O-])o1)c1ccc(F)cc1	i	-0.09
New compounds follow.
SMILES	KCNQ2 inh	KCNQ2 inh baseline
CSC1=NCCCN1C(=O)c1c(-c2ccccc2Cl)noc1C	i	0.05
Cc1cc(C)n2c(SCc3ccc(C#N)cc3)nnc2n1	i	-0.02
CCc1ccc(/C=N/NC(=O)c2cc(C3CC3)nc3ccccc23)s1	i	0.24
COc1cccc(/C=C2\SC(=S)N(CCCC(=O)Nc3ccc(C(=O)O)cc3)C2=O)c1	i	0.93
COC(=O)CSC(=S)N1C(C)CCCC1C (configuration not stated)	i	-0.47
Cc1ccccc1OCC(=O)Nc1ccc2c(c1)C(=O)c1ccccc1C2=O	i	0.07
COc1ccc(C2C(CC(=O)O)=C(O)C(=O)N2c2ccccc2)cc1 (configuration not stated)	i	-0.01
O=C(COC(=O)Cc1ccccc1F)Nc1ccc2c(c1)OCO2	i	0.32
CC(C)CC(=O)CC1(O)C(=O)Nc2ccccc21 (configuration not stated)	i	1.9
O=C(Cc1csc(NC(=O)c2ccccc2)n1)NO	i	2.7
COc1cc(NC(=O)c2cccs2)c(C(=O)OCC(=O)c2cc(C)n(-c3ccccc3)c2C)cc1OC	i	0.52
O=C(c1ccc(Cl)cc1)N1CCN(c2cccc3[nH]ccc23)CC1	i	0.43
Cc1ccccc1-n1nc2c(c1NC(=O)C(C)C)CS(=O)(=O)C2	i	-2.3
COc1cc(NC2c3ccccc3C(=O)N2Cc2ccccc2)cc(OC)c1OC (configuration not stated)	i	1.8
O=C(Nc1cccc(S(=O)(=O)N2CCCC2)c1)c1ccc2ccccc2n1	i	0.05
COCN(C#N)c1nc(OC)nc(OC)n1	i	-0.26
CCOc1ccc(S(=O)(=O)N2CCC(c3ccccc3)CC2)cc1C(=O)O	i	1.4
O=C(Nc1ccccn1)c1cccc(S(=O)(=O)N2CCOCC2)c1	i	-1.7
Cc1ccccc1OCC(=O)Nc1ccc(S(=O)(=O)Nc2onc(C)c2C)cc1	i	2.4
O=C(c1cccnc1)c1cccnc1	i	1.3
COc1ccc([N+](=O)[O-])cc1N(CC(=O)N1CCCCC1)S(C)(=O)=O	i	0.49
CCCc1cc(=O)oc2cc(OCC(=O)Nc3ccc4c(c3)OCCO4)ccc12	i	2
CC(C)(C)C(=O)COC(=O)c1cc(-c2ccncc2)nc2ccccc12	i	0.88
CCOC(=O)c1oc2c(O)c(O)ccc2c(=O)c1-c1nncn1-c1ccccc1	i	0.34

Quoted from the listing.
KCNQ2 inh baseline result of O=C(Nc1cccc(S(=O)(=O)N2CCCC2)c1)c1ccc2ccccc2n1 : 0.05
KCNQ2 inh baseline result of CCCc1cc(=O)oc2cc(OCC(=O)Nc3ccc4c(c3)OCCO4)ccc12 : 2
KCNQ2 inh baseline result of Cc1ccccc1-n1nc2c(c1NC(=O)C(C)C)CS(=O)(=O)C2 : -2.3
KCNQ2 inh baseline result of CCOc1ccc(S(=O)(=O)N2CCC(c3ccccc3)CC2)cc1C(=O)O : 1.4
KCNQ2 inh baseline result of O=C(Nc1ccccn1)c1cccc(S(=O)(=O)N2CCOCC2)c1 : -1.7
KCNQ2 inh baseline result of COc1cc(NC2c3ccccc3C(=O)N2Cc2ccccc2)cc(OC)c1OC (configuration not stated) : 1.8

Part of the list above, with two lines to a compound:
Every second line gives: KCNQ2 inh | KCNQ2 inh baseline
- COc1cc(NC2c3ccccc3C(=O)N2Cc2ccccc2)cc(OC)c1OC (configuration not stated)
→ i | 1.8
- O=C(Nc1cccc(S(=O)(=O)N2CCCC2)c1)c1ccc2ccccc2n1
→ i | 0.05
- COCN(C#N)c1nc(OC)nc(OC)n1
→ i | -0.26

Later entries
SMILES	KCNQ2 inh	KCNQ2 inh baseline
COc1ccc(OC)c(S(=O)(=O)N2CCCC(C(=O)NCCc3ccccc3)C2)c1 (configuration not stated)	i	-1.4
COC(=O)C1=C(C)N(C)C(=O)NC1c1cc(Cl)c(O)c(OC)c1 (configuration not stated)	i	0.79
COc1ccc(C(=O)N/N=C(\c2ccccc2)c2ccccn2)cc1	i	-1.6
Cc1cc2nc(CN(C)Cc3c(C(=O)N(C)C)nc4ccc(Cl)cn34)[nH]c2cc1C	i	0.7
CCN1CCN(c2oc(COc3ccc(-c4ccccc4)cc3)nc2C#N)CC1	i	-0.57
CCOC(=O)C(Cc1c[nH]c2ccccc12)NC(=O)c1ccco1 (configuration not stated)	i	-0.24
O=C(NC1CC1)C1=C[C@@H](c2csc3ccccc23)C[C@@H](OCc2ccc(CO)cc2)O1	i	2
Cc1nc(NC(=S)NC(=O)c2ccco2)sc1C(=O)N(C)C	i	1.2
CCCCOc1ccc(N=Cc2cccs2)cc1	i	-0.28
Cc1ccc(F)c(Oc2cc(NN3CCCCC3)c([N+](=O)[O-])cc2[N+](=O)[O-])c1	i	-1.1
CC(OC(=O)c1cc2sccc2n1C)C(=O)NCc1ccc(F)cc1 (configuration not stated)	i	1.7
O=C1CCCC2=C1C(c1ccsc1)CC(=O)N2c1ccccc1F (configuration not stated)	i	-0.39
O=C1CC(Sc2nnnn2-c2ccccc2)C(=O)N1c1cccc(Cl)c1 (configuration not stated)	i	1.5
Cc1[nH]c2ccccc2c1/C=N/Nc1nncn1N	i	-1.3
COc1cc(C2C(C#N)=C(N)OC3=C2C(=O)CC(C)(C)C3)ccc1OCCN1CCOCC1 (configuration not stated)	i	0.24
CCN1C(=O)CC(N2CCN(c3ccc(Cl)cc3)CC2)C1=O (configuration not stated)	i	0.32
S=C(NNC(=S)Nc1ccccc1)Nc1ccccc1	i	-1.1
O=C(c1ccc2c(c1)OCCO2)N1CCN(Cc2ccccc2)CC1	i	-1.2
Cn1cnc2cc(NS(=O)(=O)c3ccc(Br)cc3)ccc21	i	0.16
Cc1ccc(COCC(CC(C)C)N2CCN(C(=O)c3cccc(C(F)(F)F)c3)CCC2=O)cc1 (configuration not stated)	i	-0.76
COc1cc2c(cc1OC)CN(C(=O)CN1CCN(S(=O)(=O)c3ccccc3Br)CC1)CC2	i	-1.9
COc1ccccc1C(=O)N/C(=N/c1nc(C)cc(C)n1)Nc1ccccc1	i	1.3
CC(C)CNS(=O)(=O)c1cc(C(=O)OCC(=O)c2ccc3c(c2)OCCO3)c(Cl)cc1Cl	i	2.4
Cc1ccc(SCc2cn3cccnc3n2)cc1	i	-0.15

Entries of single compounds, quoted from the list:
S=C(NNC(=S)Nc1ccccc1)Nc1ccccc1 is listed as KCNQ2 inh: i; KCNQ2 inh baseline: -1.1
O=C(c1ccc2c(c1)OCCO2)N1CCN(Cc2ccccc2)CC1 is listed as KCNQ2 inh: i; KCNQ2 inh baseline: -1.2
COc1cc2c(cc1OC)CN(C(=O)CN1CCN(S(=O)(=O)c3ccccc3Br)CC1)CC2 is listed as KCNQ2 inh: i; KCNQ2 inh baseline: -1.9

Further compounds
SMILES	KCNQ2 inh	KCNQ2 inh baseline
COc1ccccc1CCN1CCCC(CN(C)C(=O)c2ccc3nc[nH]c3c2)C1 (configuration not stated)	i	-0.11
CC1(N(O)/C=C2\C=CC=CC2=O)CCCCC1=O (configuration not stated)	i	0.56
CCc1nnc(NC(=O)CSc2nnc(C)n2CC2CCCO2)s1 (configuration not stated)	i	0.66
Cc1cc(=O)oc2c(C)c(OCC(=O)NCCCn3ccnc3)ccc12	i	2.2
Cc1ccccc1N1CCN(Cc2cccc(C(=O)O)c2)CC1	i	-0.92
O=C(Nc1ccccc1)c1cc(S(=O)(=O)NCc2ccncc2)ccc1Cl	i	0.08
COc1cccc(C(=O)c2c[nH]c(C(=O)NCc3ccco3)c2)c1	i	1.2

Molecules above that contain a CF3 group (2):
SMILES	KCNQ2 inh	KCNQ2 inh baseline
Cc1ccc(N(CCC#N)C(=O)COC(=O)C2CCN(c3ccc(C(F)(F)F)cn3)CC2)cc1	i	-0.81
Cc1ccc(COCC(CC(C)C)N2CCN(C(=O)c3cccc(C(F)(F)F)c3)CCC2=O)cc1 (configuration not stated)	i	-0.76
